Screens from PubChem BioAssay.
LANA-H2B inh – blocks KSHV LANA binding to histone H2A/H2B. inhibition, % (test concentration not listed). Q9QR71. cell-free LANA-H2A/H2B peptide, fluorescence polarization. 320,000 compounds, 0.6% hits; in the data active = inhibition mostly above about 10%, no sharp cut-off; inactive = mostly below about 6.7%;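 note: stock transfer was 7.5 nL into about 10 µL; 0% = median of vehicle wells and 100% = median of positive control wells; one replicate is shown; the record names a cut of 25% in any replicate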
Bfl-1 A1 inh – inhibitors of the anti-apoptotic protein A1, read as caspase activation. caspase activation, % (test concentration not listed). 330,000 compounds, 0.066% hits. MEF A1-2A-BIM cells, Caspase-Glo 3/7 luminescence, 3 h; percent of clofoctol response, vehicle zero. AID 2462;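 active = over half of replicate activation scores above 10%, or exactly half above 10 with the replicate mean above 10; inconclusive = replicate mean below 10 yet half the replicates above 10; inactive = over half of replicates below 10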;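 note: wells of about 30 µL received 50 nL stock; many hits fall short of the cut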
ALR inh – inhibitors of human sulfhydryl oxidase ALR. P55789. purified ALR, DTT oxidation, H2O2 HRP-luminol luminescence. inhibition, % (test concentration not listed). 290,000 compounds, 3.8% hits. AID 485317;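 active = mean and each replicate at 75% or more; inconclusive = only one of the two met; inactive = neither met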;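 note: stock transfer was 7.5 nL into about 7.5 µL; 0% = neutral wells and 100% = wells with inactivated enzyme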
Target sequence (P55789 whole entry, looked up): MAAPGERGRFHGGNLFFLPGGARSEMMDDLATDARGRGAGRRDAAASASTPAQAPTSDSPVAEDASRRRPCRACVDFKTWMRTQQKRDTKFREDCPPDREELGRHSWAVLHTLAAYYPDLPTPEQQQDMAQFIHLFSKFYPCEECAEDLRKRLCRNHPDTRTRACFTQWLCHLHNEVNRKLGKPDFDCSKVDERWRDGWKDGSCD
Beta2AR agonist – activates human beta-2 adrenergic receptor causing internalization; response, % (no concentration beside the values); AID 504454; P07550; 340,000 compounds, 0.43% hits; Am2.2-beta2AR cells, FAP receptor internalization, flow cytometry; reference of the scale not given here;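 active = response above a set limit, near 3 SD of response in nonfluorescent compounds, cut at about 42% in these data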;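 note: stock transfer was 100 nL into about 11 µL; a reference agonist was the positive control; negative values mostly stem from fluorescent compounds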
Target sequence (P07550 whole entry, looked up): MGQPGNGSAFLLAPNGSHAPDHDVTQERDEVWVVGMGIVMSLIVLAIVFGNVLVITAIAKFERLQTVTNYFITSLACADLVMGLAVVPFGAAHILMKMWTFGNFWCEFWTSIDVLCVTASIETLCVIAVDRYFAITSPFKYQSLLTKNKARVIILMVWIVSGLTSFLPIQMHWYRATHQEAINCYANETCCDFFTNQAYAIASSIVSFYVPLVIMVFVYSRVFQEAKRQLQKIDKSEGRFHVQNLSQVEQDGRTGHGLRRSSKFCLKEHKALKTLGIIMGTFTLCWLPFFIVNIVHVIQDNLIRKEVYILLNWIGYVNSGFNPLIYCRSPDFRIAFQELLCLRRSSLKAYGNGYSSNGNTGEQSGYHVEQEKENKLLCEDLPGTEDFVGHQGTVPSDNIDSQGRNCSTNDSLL
Ecoli rRNA inh – selective bacterial rRNA inhibition in E. coli; E. coli WT GFP vs humanized-ribosome RFP mutants, fluorescence, 24 h; stronger effect = lower value; DMSO median 0, no signal -100; GFP signal change (wild-type ribosome), % (concentration not given with the values); 350,000 compounds, 1.6% hits; AID 720706;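 active = significant combined selectivity score with lowered wild-type GFP, culture density cut under 30%, mutant RFP and density less affected; inactive = any of these conditions unmet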; note: one replicate is shown; some compounds called inactive have numbers as strong as hits
Calb FLC – affects C. albicans growth with fluconazole; 300,000 compounds, 0.57% hits; growth inhibition, % (no concentration beside the values); AID 1979; C. albicans CaCi-2 (fluconazole-resistant clinical isolate) + fluconazole, Alamar Blue growth, 48 h;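 active = most replicates above 75%; inconclusive = exactly half above 75%; inactive = most below 75%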;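 note: all wells also contain fluconazole at 8 µg/ml as a sub-toxic cotreatment; 0% = median of DMSO wells and 100% = median of geldanamycin control wells; wells of about 8 µL received 7.5 nL stock; the first replicate is given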
Beta apoptosis – blocks beta cell apoptosis. 300,000 compounds, 0.8% hits. protection from apoptosis, % (concentration not given with the values). INS-1E cytokine-induced death, ATP luminescence, 48 h; percent of positive-control rescue, neutral wells zero;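 active = all replicates at 75% or more, or half of them and the mean; inconclusive = half reach 75% but not the mean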;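 note: 0% = cytokine-treated negative control wells and 100% = positive control rescue; higher means more ATP so stronger rescue from cytokine killing; wells of about 40 µL received 100 nL stock; the first replicate is given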
T cruzi repl – blocks replication of Trypanosoma cruzi; inhibition, % (test concentration not listed); T. cruzi beta-gal in NIH3T3, luminescence, 90 h; 300,000 compounds, 1.4% hits;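 active = mean inhibition across valid replicates above about 55%, limit read from the data; inconclusive = mean below that limit but half or more replicates reach it; inactive = mean below it, under half of replicates reach it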;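 note: signal also drops with host cell toxicity which is not excluded here; 0% = plate median of DMSO wells and 100% = zero luminescence signal; higher percent means less beta-gal luminescence so fewer parasites; stock transfer was 50 nL into about 50 µL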
Ecoli rRNA inh OD600 – second read-out of Ecoli rRNA inh, no call of its own (marks repeat the call); OD600 change, %; measured here: OD600 growth;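 optical density of the mix in the first replicate; 0 = DMSO median and -100 = no signal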
Ecoli rRNA inh RFP – further read-out of Ecoli rRNA inh, marked with its call; RFP signal change, %; measured here: RFP humanized mutant strains;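 first replicate; 0 = DMSO median and -100 = no signal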
Numbers without * were called inactive; ? = inconclusive; . = not tested or not shown. These rows are one share of the data (hit frequency here may not be typical).

SMILES	LANA-H2B inh	Bfl-1 A1 inh	ALR inh	Beta2AR agonist	Ecoli rRNA inh	Ecoli rRNA inh OD600	Ecoli rRNA inh RFP	Calb FLC	Beta apoptosis	T cruzi repl
COc1ccc([C@H]2CC(=O)C=C(c3ccccc3-c3ccccc3)C2)cc1	-3.0	0.7	-3	6	-4	3	6.4	.	5	.
Cc1nn(CC(=O)NC(=O)NC2CCCC(C)C2C)c(=O)c(C#N)c1C (centres undefined)	-2.4	-0.1	-12	-1	1	-3	-1.4	-3	-1	14
CCOC(=O)CNC(=O)N1CCCC(C(=O)c2cccc(Cl)c2)C1 (centres undefined)	-9.0	1.3	.	-5	0	6	1.6	17	-10	-17
CCc1ccc2nc(N(CCCN(C)C)C(=O)c3ccc(S(=O)(=O)N(C)C4CCCCC4)cc3)sc2c1	9.0	0.6	-1	21	-12	10	4.5	-4	18	32
Cc1ccccc1C(=O)NNC(=O)/C=C/c1ccccc1	2.7	-0.2	-7	-370	18	15	3.2	7	-11	1
O=C(O)c1ccc(CN2C(=O)c3ccc(C(=O)O)cc3C2=O)cc1	-0.1	0.2	1	-5	1	9	1.9	18	-4	-15
CC(C)CCn1nnnc1CN1CCN(c2ccc(F)cc2)CC1	-4.4	-0.1	49	8	-4	-7	1.8	11	-3	3
Cc1nn2c(NC(C)C)c3c(nc2c1-c1ccccc1)CCC3	-6.6	-0.4	9	-15	-12	18	3.6	-4	18	25
Cc1nc2c(-c3ccc(F)cc3)c(C)nn2c(N2CCOCC2)c1C	-3.0	-0.4	-5	12	.	.	.	14	1	5
Cc1cc(/C=C2/SC(=S)N(c3cccc(Cl)c3)C2=O)c(C)n1-c1cccnc1	4.3	0.4	-9	6	.	.	.	1	125*	21
COc1ccc(N2CCN(C3CCCN(Cc4ccc(F)cc4Cl)C3)CC2)cc1 (centres undefined)	-0.4	0.5	.	7	5	-8	-1.8	-18	.	42
CN(C)CCCN(C(=O)COc1ccccc1)c1nc2ccc(Cl)cc2s1	2.0	-0.1	13	29	2	4	-3.4	-24	-8	?
O=S1(=O)N=C(N(CCO)/N=C/C=C/c2ccccc2)c2ccccc21	0.0	0.8	12	2	.	.	.	-4	3	-11
COc1ccc(Cl)cc1NC(=O)COC(=O)c1cc(NS(=O)(=O)c2cccs2)ccc1O	-1.9	-0.2	1	-8	-21	-27	-12	14	-4	0
CN1CCN(CCCNC(=S)Nc2ccc(F)c(Cl)c2)CC1	-0.6	1.0	.	2	12	-10	-0.6	-9	-7	-17
COc1ccc(/C=N/OC/C(O)=C(\C#N)c2nc3ccccc3[nH]2)cc1OC	3.0	0.2	.	3	.	.	.	13	-1	3
C=CCOC(=O)C1=C[C@H](c2cn(C(C)=O)c3ccccc23)[C@@H](CCCO)[C@H](OCC)O1	7.0	?	-3	1	-11	-7	7.1	-4	-5	18
CC(C)OC(=O)C1C(=O)CC(C)(O)C(C(=O)OC(C)C)C1c1cccnc1 (centres undefined)	-1.8	0.7	-15	6	.	.	.	5	-1	-8
CC1CCN(S(=O)(=O)c2ccc(NC(=O)CN3CCCC3)cc2)CC1	0.1	-0.4	-1	-4	7	1	-0.6	-7	-5	25
CCCN(Cc1cc2cc(OC)ccc2[nH]c1=O)C(=O)c1ccncc1	-4.4	0.8	-38	-2	.	.	.	3	-4	-6
Cc1ccc(-c2cc(C(=O)O)n(-c3ccc(S(N)(=O)=O)cc3)n2)cc1	2.4	0.5	4	-3	5	9	-4.3	3	-8	-35
O=C(Nc1cn(-c2ccccc2)nc1-c1ccccc1)c1ccccc1	-0.5	-0.2	-7	-2	-14	-17	-6.6	0	2	-3
CC(C)c1nnc(NC(=O)C2CCCN2C(=O)Nc2cccc(Cl)c2)s1 (centres undefined)	4.0	0.2	-1	6	1	5	-1.5	2	3	-10
Oc1cccc2ccc(/C=C/c3cccs3)nc12	13*	-8.1	-15	35	.	.	.	38	22	32
CSc1cccc(NCc2ccc([N+](=O)[O-])cc2)c1	0.4	0.3	60	0	0	-3	2.0	7	.	-2
Cc1nc(S(=O)(=O)Nc2ccccc2C(=O)NCC2CC2)cn1C	5.3	0.2	-18	0	9	2	-0.9	0	-3	-13
Cc1cc(Cl)cc(Cl)c1OCC(=O)NCc1ccco1	-2.5	0.9	91*	-5	.	.	.	-4	2	-30
O=C(C1CCN(S(=O)(=O)c2ccc(-n3cnnn3)cc2)CC1)N1CCCCC1	5.2	-0.7	.	-1	12	2	-3.0	-2	2	-13
Cn1c(SCC(=O)c2ccccc2)nnc1C1COc2ccccc2O1 (centres undefined)	4.5	0.4	30	-8	6	7	-0.1	-5	1	8
COc1ccc(C(C)=O)cc1CN1CCCCC1	-1.3	0.3	8	-4	.	.	.	-7	5	3
COc1cccc(/C(O)=C2/C(=O)C(=O)N(CCCN3CCOCC3)C2c2ccncc2)c1 (centres undefined)	0.2	0.0	-3	-2	.	.	.	-16	-2	-16
CCOc1ccc(N(CC(=O)N2CCCC2)S(=O)(=O)c2c(C)noc2C)cc1	-2.2	0.2	-14	-3	-5	3	-5.0	-3	1	15
O=C(Nc1ccc(Cl)cc1)C1CCN(C(=O)c2ccco2)CC1	-1.2	-1.9	-4	1	-4	-12	1.8	4	.	-6
Cc1nn(Cc2c(Cl)cccc2Cl)c(C)c1NC(=O)c1sc2ccccc2c1Cl	1.3	1.3	-3	4	.	.	.	-3	46	17
CCc1ccc(-c2nn(-c3ccccc3)cc2CSC(=N)N)cc1	0.2	0.4	.	.	.	.	.	22	89*	?
O=C(N/N=C/c1ccco1)c1cc(-c2ccccc2)n[nH]1	3.5	-2.9	39	-5	.	.	.	.	8	-11
COc1ccccc1-c1sc2ccccc2c1C#CC1(O)CCCCC1	-2.2	-0.3	-4	16	1	-4	0.8	.	-12	.
CCOc1ccccc1N(CC(=O)NCCc1ccc(OC)c(OC)c1)S(=O)(=O)c1ccccc1	-4.1	0.2	.	10	-13	-17	-1.2	-5	5	10
CN(C)CCCNc1cn[nH]c(=O)c1Cl	5.2	0.7	-6	-7	14	10	-0.1	-5	-3	70*
CCOC(=O)C1(Cc2ccccc2C)CCCN(S(C)(=O)=O)C1 (centres undefined)	-11	-1.0	.	-4	-9	-4	4.1	34	.	-1
O=C(N/C(=C\c1ccc([N+](=O)[O-])cc1)C(=O)N1CCCCC1)c1ccccc1	13*	0.6	11	-6	18	19	2.1	46	.	5
Cc1nc(=O)c(-c2ccccc2)c(C)n1-c1ccc(Br)cc1	-1.1	0.3	-13	-2	-7	-4	-0.8	-2	-6	2
O=C(C1CCCN(S(=O)(=O)c2cnc[nH]2)C1)N1CCN(c2ccc(Cl)cc2)CC1 (centres undefined)	2.1	0.5	96*	-2	-12	-15	-7.0	15	.	-11
Cc1ccc(NCc2ccc([N+](=O)[O-])s2)cc1	1.5	-1.8	98*	8	0	8	7.6	12	-1	13
O=C(c1cccnc1NCc1ccccc1)N1CCOCC1	-0.1	0.4	7	3	.	.	.	3	-9	-6
Cc1nc(N2CCCCC2)c2sc(=S)n(C)c2n1	1.3	0.3	25	-6	13	11	0.5	-5	2	-4
CCCN1CCC(NC(=O)Nc2cccc3ccccc23)CC1	1.9	0.2	-3	4	13	9	-1.1	2	-2	-7
O=C(N/N=C/c1ccccn1)c1ccco1	2.1	-0.7	-2	-6	.	.	.	-24	.	-10
CC(=O)c1cccc(NC(=O)C2C3CCC(C3)C2C(=O)O)c1 (centres undefined)	-4.6	-0.9	-1	-1	6	3	0.6	-1	1	-5
COc1cccc(NC(=O)N(CCN(C)C)C(C)c2cccnc2)c1 (centres undefined)	0.6	0.0	.	-2	7	2	-4.1	-6	-5	12
(next part)
SMILES	LANA-H2B inh	Bfl-1 A1 inh	ALR inh	Beta2AR agonist	Ecoli rRNA inh	Ecoli rRNA inh OD600	Ecoli rRNA inh RFP	Calb FLC	Beta apoptosis	T cruzi repl
Cc1c(C(=O)N2CCN(c3ccccc3)CC2)sc2nc3n(c(=O)c12)CCC3	-1.4	0.6	34	3	1	-1	0.3	-1	0	1
COc1cccc(N2CCN(C(=O)C3C4C=CC5(CN(Cc6ccccc6Cl)C(=O)C35)O4)CC2)c1 (centres undefined)	-4.4	0.5	54	2	.	.	.	?	-5	19
c1ccc2oc(-c3[nH]ncc3CN3CCSCC3)cc2c1	2.6	0.9	19	2	-8	-7	2.3	7	0	7
C[C@@H]1CCC[C@]2(O[C@@H](CCO)C[C@H](O)[C@H]2O)O1	-0.7	0.9	.	0	15	14	12	-10	-9	-11
CCOC(=O)c1cc(-c2ccccc2)sc1NC(=O)C(C)Sc1nnnn1C (centres undefined)	1.7	0.7	1	-19	.	.	.	-20	1	11
O=C(CN1C2CCCC1CC(NC(=O)c1ccco1)C2)Nc1ccccc1 (centres undefined)	-4.3	-0.2	7	-5	.	.	.	0	-4	21
O=C(NCc1ccccc1)C1(c2cccc(F)c2)CCCC1	-5.0	-0.1	.	8	-23	-19	-4.9	-18	-6	.
Cc1cc(C)c2cc(C#N)c(N3CCCN(C(=O)c4cnccn4)CC3)nc2c1	-2.2	-0.3	-12	0	4	-5	1.0	3	-5	10
O=C(Nc1cccc(S(=O)(=O)N2CCCC2)c1)c1cc(S(=O)(=O)N2CCOCC2)ccc1F	9.5	0.2	13	-3	-5	-2	0.8	-3	-5	-3
Cc1cc(C(=O)N2CCCC(C(=O)c3ccc4ccccc4c3)C2)n(C)n1 (centres undefined)	6.5	-0.9	-3	-1	-24	-28	-3.8	6	-1	13
O=C(C1CSC2(c3ccc(F)cc3)CCC(=O)N12)N1CCCCCC1 (centres undefined)	1.5	-0.2	-21	0	.	.	.	-10	-2	1
Cc1c(N=C/C=C2\N(C)c3ccccc3C2(C)C)c(=O)n(-c2ccccc2)n1C	-1.1	1.4	93*	-5	7	3	4.8	2	2	-8
O=c1cc(CSc2nnnn2-c2ccc(O)cc2)nc2sccn12	1.6	-0.1	-36	-4	-2	10	-3.6	-4	4	-12
COCCNC(=O)C1CCN(S(=O)(=O)c2ccccc2)CC1	-4.8	-1.5	-3	3	.	.	.	-10	-9	4
Cc1ccc(Oc2c(F)c(F)nc(N3CCCC3)c2F)cc1	-2.9	0.3	-15	0	9	8	1.5	2	3	13
NC(=O)C1CCN(C(=O)c2cccc(CN3C(=O)c4ccccc4C3=O)c2)CC1	-4.6	-0.3	.	-9	3	2	1.3	.	1	.
Cc1cc(N2CCN(C)CC2)nc2ccc(NC(=O)c3cccnc3Cl)cc12	-1.8	-0.3	.	11	.	.	.	-1	-5	47
CCOC(=O)N1CCN(C(=O)c2ccc(CS(=O)(=O)c3ccc(OC)cc3)o2)CC1	.	.	.	-6	3	5	-1.5	2	.	1
